Screening results deposited in PubChem by several laboratories.
Ecoli rRNA inh: inhibitors of bacterial rRNA selective over humanized ribosomes. E. coli WT GFP vs humanized-ribosome RFP mutants, fluorescence, 24 h; hits give low values; DMSO median 0, no signal -100. GFP signal change (wild-type ribosome), % (no concentration beside the values). hit rate 1.6% among 350,000;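 active means significant combined selectivity score with lowered wild-type GFP, culture density cut under 30%, mutant RFP and density less affected; inactive means any of these conditions unmet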; further: one replicate is shown; some compounds called inactive have numbers as strong as hits
E coli growth: inhibitors of Escherichia coli growth | AID 1053175 | OD600 absorbance (concentration not given with the values) | OD600, 23 h; hits give low values | hit rate 0.21% among 330,000;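 active means OD600 absorbance below the run mean of sample wells minus 3.6 SD, in any replicate, cut at about 0.56 in these data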;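 further: stock transfer was 300 nL into about 60 µL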
Beta2AR agonist: activates human beta-2 adrenergic receptor causing internalization; P07550; Am2.2-beta2AR cells, FAP receptor internalization, flow cytometry; reference of the scale not given here; response, % (test concentration not listed); hit rate 0.43% among 340,000;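 active means response above a set limit, near 3 SD of response in nonfluorescent compounds, cut at about 42% in these data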;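 further: stock transfer was 100 nL into about 11 µL; a reference agonist was the positive control; negative values mostly stem from fluorescent compounds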
ALR inh: blocks human ALR sulfhydryl oxidase activity; hit rate 3.8% among 290,000; P55789; inhibition, % (test concentration not listed); purified ALR, DTT oxidation, H2O2 HRP-luminol luminescence;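 active means mean and each replicate at 75% or more; inconclusive means only one of the two met; inactive means neither met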;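 further: stock transfer was 7.5 nL into about 7.5 µL; 0% = neutral wells and 100% = wells with inactivated enzyme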
HNF4A DNA FP: change in binding of human HNF4 alpha to DNA. AID 1224865. hit rate 0.3% among 360,000. activity change, % at 10 µM. HNF4a-FITC DNA binding, fluorescence polarization, 1 h; in the data active means activity change above about 30%, passing the limit was not always enough;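 further: controls were the assay level and a saturating level of protein; the project sought stronger binding though the title names inhibitors; some compounds called inactive have numbers as strong as hits; positive values seem to mean higher polarization but the record does not say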
Target sequence (P41235 whole entry, looked up): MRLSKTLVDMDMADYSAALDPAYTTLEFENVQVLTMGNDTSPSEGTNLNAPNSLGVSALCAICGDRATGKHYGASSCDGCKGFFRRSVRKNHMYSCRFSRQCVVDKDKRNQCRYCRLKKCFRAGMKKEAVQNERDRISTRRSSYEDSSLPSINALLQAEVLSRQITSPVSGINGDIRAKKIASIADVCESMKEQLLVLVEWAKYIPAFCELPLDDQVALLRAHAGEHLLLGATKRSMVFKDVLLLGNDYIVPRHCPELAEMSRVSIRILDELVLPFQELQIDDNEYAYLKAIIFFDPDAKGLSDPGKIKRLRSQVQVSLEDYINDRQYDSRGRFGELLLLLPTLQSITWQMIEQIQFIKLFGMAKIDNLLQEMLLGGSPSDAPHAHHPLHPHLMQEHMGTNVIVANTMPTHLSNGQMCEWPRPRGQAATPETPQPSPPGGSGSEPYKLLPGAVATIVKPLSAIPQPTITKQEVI
FGF22 binding: shifts melting point of recombinant human FGF22; Q9HCT0; recombinant FGF22 thermal shift, SYPRO orange fluorescence; percent of sucrose octasulfate shift, DMSO zero; calls only at 9.99 µM; hit rate 1.5% among 340,000;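 active means melting point raised past a set limit in the mean and every replicate; inconclusive means no clear call; three in four hits are not shown here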
Target sequence (Q9HCT0 whole entry, looked up): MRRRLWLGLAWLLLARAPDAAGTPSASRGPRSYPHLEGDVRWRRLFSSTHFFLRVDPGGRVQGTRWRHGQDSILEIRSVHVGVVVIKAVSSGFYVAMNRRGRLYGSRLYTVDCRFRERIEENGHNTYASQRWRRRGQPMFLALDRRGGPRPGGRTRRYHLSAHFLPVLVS
UCH37 DUB inh: blocks the human deubiquitinase UCH37 | hit rate 0.33% among 330,000 | purified proteasome/UCH37, Ub-AMC cleavage fluorescence | inhibition, % (test concentration not listed) | Q9Y5K5 | AID 588478;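 active means mean of two replicates above 20%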;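 further: 0% = compound-free wells with enzyme and 100% = wells lacking proteasome; stock transfer was 100 nL into about 20 µL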
Target sequence (Q9Y5K5 whole entry, looked up): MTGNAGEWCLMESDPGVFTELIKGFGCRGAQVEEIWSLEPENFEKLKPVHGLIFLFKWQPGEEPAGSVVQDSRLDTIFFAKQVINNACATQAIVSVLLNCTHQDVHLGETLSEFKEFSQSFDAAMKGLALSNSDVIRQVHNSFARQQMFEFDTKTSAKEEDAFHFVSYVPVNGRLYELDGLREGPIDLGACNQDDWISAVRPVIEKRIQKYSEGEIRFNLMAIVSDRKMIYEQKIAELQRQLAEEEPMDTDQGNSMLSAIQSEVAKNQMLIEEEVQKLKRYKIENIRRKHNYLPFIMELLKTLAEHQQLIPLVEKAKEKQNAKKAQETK
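Material: Human UCH37 enzyme supplied as purified proteasome complex | Schedule: 30 min compound-proteasome preincubation then 25 min substrate reaction, room temperature | Detection: AMC fluorescence from Ub-AMC cleavage, excitation 355 nm, emission 460 nm | Benchmarks: Wells without proteasome as full block, compound-free enzyme plus substrate as uninhibited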
Ecoli rRNA inh OD600: recorded beside Ecoli rRNA inh, whose call it bears; OD600 change, %; measured here: OD600 growth;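 optical density of the mix in the first replicate; 0 = DMSO median and -100 = no signal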
Ecoli rRNA inh RFP: second read-out of Ecoli rRNA inh, no call of its own (marks repeat the call); RFP signal change, %; measured here: RFP humanized mutant strains;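 first replicate; 0 = DMSO median and -100 = no signal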
Starred values were filed as active, the others as inactive; i = inactive; ? = inconclusive; · = no result given. Some of the compounds tested; rates above refer to the full screens.

UCH37 DUB inh	Ecoli rRNA inh RFP	Beta2AR agonist	HNF4A DNA FP	Ecoli rRNA inh	FGF22 binding	Ecoli rRNA inh OD600	E coli growth	ALR inh	Structure
-0.4	5.6	-2	-0.1	-3	i	8	0.66	2	Cc1[nH]c2ccccc2c1C(=O)COC(=O)c1ccccc1O
-243	·	-5	6.2	·	·	·	0.7	-3	N#Cc1c(N)n(CCNC(=O)c2ccc(Cl)cc2)c2nc3ccccc3nc12
2.2	·	-2	0.0	·	·	·	0.71	-18	CCc1nc(C(N)=O)c2[nH]c(=O)n(-c3ccc(OC)cc3OC)c2n1
·	·	11	6.0	·	·	·	·	98*	Cc1cc(C)nc(N/N=C/C2=C(N3CCOCC3)C(=C\c3ccc(Cl)cc3)/CC2)n1
0.1	15	5	5.1	-4	i	-23	·	-5	CC(CCN1C(Nc2ccccc2)=NC[C@@H]1Cc1ccccc1)c1ccccc1 (stereo partly specified)
4.8	0.1	5	5.1	0	i	2	0.69	·	Cc1cc(C(=O)OC(C)C(=O)N2CCc3ccccc32)ccc1[N+](=O)[O-] (stereo unspecified)
·	0.4	-10	3.9	5	i	6	·	-11	Cn1ccnc1C1CCCCN1Cc1nc(-c2ccc(Cl)cc2)no1 (stereo unspecified)
-52	·	4	-1.1	·	·	·	0.72	-4	Cc1ccc(NC(=O)CCSc2nnc3ccccn23)cc1
3.1	-0.3	-1	-4.8	1	i	-5	0.68	0	CCOC(=O)c1ccc(CNC(=O)C2CCC(=O)N(CCc3ccccc3)C2)o1 (stereo unspecified)
0.8	·	-9	0.0	·	·	·	0.67	-7	Cc1cccc(-c2nnc(SCC#N)n2-c2cccc(Cl)c2)c1
-1.2	·	18	-4.7	·	·	·	0.69	-9	O=C(Nc1ccccc1Cl)c1cc(S(=O)(=O)N2CCCCC2)ccc1N1CCOCC1
-5.2	·	-11	2.1	·	·	·	0.75	·	COc1ccc(CCNC2CC(=O)N(CCc3ccc(OC)c(OC)c3)C2=O)cc1OC (stereo unspecified)
2.5	-1.3	-4	1.6	4	i	14	0.71	1	CCOC(=O)N1CCC(NCCNC(=O)c2ccc(F)cc2)CC1
-48	·	-2	5.7	·	·	·	0.72	-6	Cc1ccc(N2CC3=C(C2=O)C(c2ccccc2)NC(=O)N3C)cc1 (stereo unspecified)
1.7	-5.3	20	5.4	-5	i	-18	0.61	19	CCOC(=O)c1ccc(S(=O)(=O)N2CCN(CC(O)COc3ccc(C#N)cc3)CC2)cc1 (stereo unspecified)
·	5.2	·	0.6	-2	i	3	·	·	CC(CC(c1ccccc1)N1CCc2ccccc2C1)=NO (stereo unspecified)
2.9	-1.1	1	-1.6	5	i	-3	0.62	-5	CCCc1nnc(NC(=O)c2cccnc2)s1
3.7	-0.5	1	-2.4	13	i	13	0.71	-23	CCOc1ccc(C(=O)Nc2ccccc2NC(C)=O)cc1OCC
1.0	·	-9	2.8	·	·	·	0.72	-14	CCOC(=O)N1CCC(NS(=O)(=O)c2ccc3c(c2)CCN3C(C)=O)CC1
0.4	·	3	2.4	·	·	·	0.69	-4	CCn1c(=O)cc(OCC(=O)N2CCN(C(=O)c3ccco3)CC2)c2ccccc21
2.7	-1.2	-1	-1.7	3	·	2	0.7	48	COc1cccc(C2NC(CC(C)C)(C(=O)O)C3C(=O)N(Cc4ccccc4)C(=O)C23)c1O (stereo unspecified)
-2.9	·	17	-0.1	·	·	·	0.72	91*	O=C(CCN1CCCCCC1)c1ccccc1
1.1	0.7	24	-2.8	0	i	-7	0.68	57	CCN(C(=O)CSc1nc2cc(C(=O)O)ccc2c(=O)n1Cc1ccccc1)c1ccccc1
4.4	·	-6	1.2	·	·	·	0.67	-2	CCOc1nc(SCCOc2ccc(Cl)cc2Cl)nc(N(C)C)n1
1.3	1.7	-17	-2.1	8	i	13	0.74	·	CC(C)NC(=O)CSc1nnc2sc3ccccc3n12
2.9	·	-1	-1.7	·	·	·	0.69	-4	CNS(=O)(=O)c1cccc(C(=O)Nc2cccnc2)c1
4.6	0.0	-8	1.8	-34	i	-35	0.72	-1	Cc1ccc(S(=O)(=O)N2C(=O)CCC2C(=O)O/N=C(\N)c2ccccc2)cc1 (stereo unspecified)
·	2.2	-9	6.6	-6	i	-11	·	·	Nc1ccc2c(c1)[nH]c(=O)c1ccccc12
3.7	-0.8*	6	5.1	-28*	i	-21*	0.66	1	CC(=O)c1cnc(SCc2ccc(Cl)cc2)nc1C
-1.0	·	-2	0.2	·	·	·	0.69	0	CCOC(=O)C(C(=O)Nc1nc2ccccc2s1)C1CCCCC1 (stereo unspecified)
2.3	0.5	-5	5.3	-2	i	0	0.67	5	CCc1ccc(C(=O)N2CCN(c3ccc(NC(=O)c4cccnc4)cc3)CC2)cc1
0.4	-2.2	-1	0.0	4	i	-2	0.68	-2	COc1ccc(S(=O)(=O)N2CCOCC2)cc1NC(=O)Cc1ccc(Cl)c(Cl)c1
1.4	-0.8	-2	-3.1	1	i	-2	0.68	-1	Cc1ccccc1OCCC(=O)Nc1ccccc1C(=O)N1CCCCC1
·	-1.6	·	-5.4	0	i	0	·	·	COc1ccc(-c2csc(C(NC(C)=O)c3ccc(F)c(F)c3)n2)cn1 (stereo unspecified)
0.8	-1.4	9	-2.6	-11	i	-6	0.67	99*	CCOC(=O)C(CC)(CCC(=O)O)c1csc(Nc2ccc(C)cc2)n1 (stereo unspecified)
2.0	-1.3	0	-5.4	5	i	5	0.69	12	O=C(NCC1CCCO1)C(=O)NCC1CCCN1S(=O)(=O)c1ccccc1 (stereo unspecified)
1.7	·	0	-1.1	·	·	·	0.7	2	O=C(NCc1ccco1)c1cccc(F)c1
·	0.2	3	-0.8	3	i	5	·	99*	CN(C)c1ccc(/C=N/NC(=O)C(=O)N2CCCCCC2)cc1
·	3.5	·	-0.8	5	i	7	·	·	CN(C)CCNc1ncnc2c1ncn2[C@H]1CN(Cc2cccs2)C[C@@H](CO)O1
-0.4	1.0	7	-0.8	-14	i	-26	0.67	-1	COCc1ccc(C(=O)Nc2cccc(S(=O)(=O)N(C)c3ccccc3)c2)cc1
-0.2	3.4	18	2.7	25	i	-1	0.68	-4	Cc1ccc2c(C)nc(Nc3nc(CSc4nc5ccccc5[nH]4)cc(=O)[nH]3)nc2c1
1.5	·	3	2.0	·	·	·	0.77	·	CCC1OC23CCCCC2C(C#N)(C(=N)O3)C1(C#N)C#N (stereo unspecified)
-2.0	·	18	-1.5	·	·	·	0.72	0	COc1ccc(OC)c(C(=O)COC(=O)c2ccccc2O)c1
4.3	·	0	-2.9	·	·	·	0.67	2	COc1ccc(N/C(C)=C/C(=S)Nc2ccccc2)cc1
2.4	·	11	0.2	·	·	·	0.68	-6	COc1cccc(NC(=O)COC(=O)c2c(F)cccc2F)c1
-2.5	-2.5	-1	-1.9	1	i	-2	0.66	-6	COc1ccccc1NS(=O)(=O)c1cccc(C(=O)NNC(=O)C(C)NC(=O)c2ccco2)c1 (stereo unspecified)
4.9	-4.5	1	3.3	-22	i	-25	0.71	83*	Cc1ccc(S(=O)(=O)N(C)CC(=O)Nc2ccccc2N2CCCC2)cc1
0.0	·	-4	1.5	·	·	·	0.7	·	O=C(NCC(=O)N(c1ccccc1F)C(C(=O)NCC1CCCO1)c1ccccc1)c1ccco1 (stereo unspecified)
5.1	·	11	1.1	·	·	·	0.69	?	CN(C)c1ccc(NC(=O)c2cccc(C(=O)Nc3ccc(N(C)C)cc3)n2)cc1
0.7	-15	-20	-4.5	-3	i	9	0.65	-4	COc1ncccc1-c1nnn(-c2ccc(Cl)nc2)n1

Entries above that bear a hit mark in ALR inh.
UCH37 DUB inh	Ecoli rRNA inh RFP	Beta2AR agonist	HNF4A DNA FP	Ecoli rRNA inh	FGF22 binding	Ecoli rRNA inh OD600	E coli growth	ALR inh	Structure
·	·	11	6.0	·	·	·	·	98*	Cc1cc(C)nc(N/N=C/C2=C(N3CCOCC3)C(=C\c3ccc(Cl)cc3)/CC2)n1
-2.9	·	17	-0.1	·	·	·	0.72	91*	O=C(CCN1CCCCCC1)c1ccccc1
0.8	-1.4	9	-2.6	-11	i	-6	0.67	99*	CCOC(=O)C(CC)(CCC(=O)O)c1csc(Nc2ccc(C)cc2)n1 (stereo unspecified)
·	0.2	3	-0.8	3	i	5	·	99*	CN(C)c1ccc(/C=N/NC(=O)C(=O)N2CCCCCC2)cc1
4.9	-4.5	1	3.3	-22	i	-25	0.71	83*	Cc1ccc(S(=O)(=O)N(C)CC(=O)Nc2ccccc2N2CCCC2)cc1

Next records follow:
UCH37 DUB inh	Ecoli rRNA inh RFP	Beta2AR agonist	HNF4A DNA FP	Ecoli rRNA inh	FGF22 binding	Ecoli rRNA inh OD600	E coli growth	ALR inh	Structure
·	6.0	·	·	0	i	-2	·	-2	O=C1NC(Cc2ccccc2)c2nc3ccc(F)cc3c(=O)n2-c2ccccc21 (stereo unspecified)
·	-5.7	6	-1.3	-8	i	-1	·	-10	O=C(N/N=C/c1ccccc1)C(O)c1ccccc1 (stereo unspecified)
2.9	4.8	18	1.9	-14	i	-4	0.53	3	S=C1SCN(Cc2ccco2)CN1Cc1ccco1
·	2.6	-3	-11	5	i	-65	·	·	CN(C)CCNC(=O)c1cccc2nc3cccc(F)c3nc12
-3.7	-1.5	3	0.7	-1	i	-7	0.68	·	O=C(CSc1ccccc1)N1CCN(c2ccccn2)CC1
2.1	0.8	-3	3.2	3	i	1	0.64	-5	CN(CCO)c1nc2c(c(=O)n(Cc3ccc(Cl)cc3)c(=O)n2C)n1C
-231	46	-7	5.0	5	i	-9	0.67	8	COc1ccc2c(c1)NC(c1ccc(N(C)C)cc1)c1cccn1-2 (stereo unspecified)
-1.8	-3.5	-5	0.9	8	·	-2	0.67	-6	Cc1ccc(C(=O)COc2ccc3ccc(=O)oc3c2)cc1
1.5	-3.8	-4	-1.0	-1	i	-16	0.64	3	Cc1cc(C(=O)COC(=O)C2=COCCO2)c(C)n1-c1ccccc1
2.8	4.3	10	2.1	-5	i	-5	0.68	-8	O=C(Cc1cccs1)Nc1nc(-c2ccc(F)c(F)c2)cs1
0.5	·	3	3.3	·	i	·	0.69	1	O=C(c1ccncc1)N1CCN(S(=O)(=O)c2cccc(C(F)(F)F)c2)CC1
·	0.8	-116	-0.8	-2	i	1	·	-4	O=C(/C=C/c1ccc(F)cc1)N1CC[C@@]2(O)CCCC[C@H]2C1
·	8.4	-2	2.2	9	i	21	·	-14	C/C(=N\N1C(C)CCCC1C)c1ccccc1O (stereo unspecified)
3.7	-3.2	-6	4.7	-4	i	1	0.7	-6	Cc1ccccc1N(CC(=O)NCCSCc1ccccc1)S(C)(=O)=O
·	0.4	·	-0.2	5	i	22	·	·	O=C(NCc1ccc(F)c(F)c1)C1Cc2c(-c3ccc4c(c3)OCO4)ccnc2O1 (stereo unspecified)
4.2	-1.3	0	-7.3	9	i	13	0.69	·	CCOc1ccc(CN2C(=O)c3ccccc3C2=O)cc1C(=O)N1CCC(C(N)=O)CC1
·	·	-9	1.0	·	·	·	·	-2	CC1CCCCN1C(=O)C12CCC(C)(/C(=N/O)C1)C2(C)C (stereo unspecified)
-0.1	-1.5	0	1.0	3	i	0	0.7	2	Cc1ccc(C(=O)Nc2ccc(N3CCN(C(=O)c4cccs4)CC3)cc2)c(Cl)c1
·	-1.0	·	1.5	6	i	5	·	·	O=C(COC(=O)/C=C/c1ccccc1)NCc1ccco1
-19	1.2	-17	0.9	10	i	-1	0.7	1	O=C(Nc1nccs1)c1c(O)c2c([nH]c1=O)CCCC2
0.6	8.6	2	0.3	2	i	-13	0.74	?	Cc1ccc(NC(=O)CSc2nccn2Cc2ccco2)c(C)c1
